Screening results (PubChem BioAssay)
Rango complex inh: Rango-importin beta binding inhibition. actives 0.031% (n = 340,000). Potency, µM (doses to about 92.2 µM), inactives show at the top dose inhibition of complex formation. Q14974. Rango CFP/YFP FRET sensor + importin beta, 45 min; active = rising FRET ratio curve, often small or poorly fitted; inconclusive = mostly compound fluorescence or quenching in the first reads; inactive = flat curves in all reads;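 note: potency is the fitted concentration of half-maximal effect; 0% = DMSO wells and 100% = buffer wells lacking importin beta; nearly all actives have a fitted effect of over 15% in size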
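Inhibition scored from the CFP 486 nm/YFP 530 nm FRET ratio 45 min after adding 0.125 microM importin beta to 50 nM Rango biosensor preincubated 5 min with compound (room temperature, PBS with DTT, Tween-20, BSA). No-importin wells as positive control.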
Rango release inh: prevents RanGTP from dissociating the Rango-importin beta complex | Biochemical FRET Rango-importin beta, RanGTP-induced dissociation | Potency, µM (highest dose often 46.1 µM), without a hit: at the highest dose activity change, negative = inhibition | actives 0.071% (n = 340,000); active means falling FRET ratio curve, often poorly fitted, with flat reads before Ran was added; inconclusive means other falling curves, or compound fluorescence or quenching; inactive means flat or rising ratio curve;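 note: potency is the fitted concentration of half-maximal effect; % of control where 0% means no effect; nearly all actives have a fitted effect of over 45% in size; -100% = wells without RanGTP and RCC1; the record marks most hits as doubtful in a second field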
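Compounds preincubate 5 min with complex of recombinant Rango and importin beta in PBS with 1 mM DTT. Ran (0.6 uM) loaded with 2 mM GTP plus 0.2 uM RCC1 starts dissociation; FRET is recorded 45 min later.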
GLA inh pH 4.5: blocks human alpha-galactosidase A at pH 4.5 | purified enzyme, 4-MU-alpha-Gal fluorescence, pH 4.5 | P06280 | AID 1467 | activity change, negative = inhibition, % at 105 µM | 230,000 tested, under 10 active; inconclusive = small, poorly fitted or top-dose-only inhibition, or a rising curve; inactive = flat fitted curve, though single readings scatter; no compound was filed as active;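 note: 0% = full activity with enzyme and -100% = basal without enzyme; dose as in the result columns while the protocol names 77 µM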
Target sequence (P06280 whole entry, looked up): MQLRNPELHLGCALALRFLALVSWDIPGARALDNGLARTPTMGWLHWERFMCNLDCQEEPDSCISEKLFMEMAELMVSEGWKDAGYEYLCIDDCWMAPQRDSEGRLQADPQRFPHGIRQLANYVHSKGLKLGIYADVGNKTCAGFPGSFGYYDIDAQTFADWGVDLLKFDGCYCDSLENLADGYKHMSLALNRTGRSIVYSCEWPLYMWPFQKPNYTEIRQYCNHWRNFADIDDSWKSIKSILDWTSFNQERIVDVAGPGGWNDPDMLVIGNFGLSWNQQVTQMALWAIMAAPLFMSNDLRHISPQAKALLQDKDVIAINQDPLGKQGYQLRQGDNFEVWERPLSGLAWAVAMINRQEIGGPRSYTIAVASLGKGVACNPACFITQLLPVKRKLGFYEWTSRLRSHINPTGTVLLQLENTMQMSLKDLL
miR-21 FLuc: raises the signal of a miR-21 reporter; HeLa miR-21 FLuc reporter, luciferase, 48 h; Potency, µM (top dose mostly 38.3 µM), for the others: at the highest dose reporter change, positive = more light; 340,000 tested, under 10 active; AID 2288; active = well fitted rising curve with a large enough effect; inconclusive = small, poorly fitted or top-dose-only effect; inactive = no such curve, though single readings can be large or run the other way;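 note: % of control where 0% means no effect; miR-21 action dims this reporter so a rising signal means less miR-21 action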
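Using DMEM plus 10% FBS, HeLa miR-21-FLuc cells are incubated with test compounds (final up to about 40uM) for 48 hours; firefly luciferase signal is then imaged following reagent-mediated lysis.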
An asterisk follows results filed as active; ? = inconclusive; · = no result given. An excerpt, so the mix of outcomes need not match the whole.

SMILES	Rango complex inh	Rango release inh	GLA inh pH 4.5	miR-21 FLuc
CCCCOc1ccccc1C1NC(=O)NC(C)=C1C(=O)OCCOCC (centres undefined)	-0.7%	13%	-16	-4%
COc1cccc(-c2ncc3ccccc3c2COC(=O)c2ccco2)c1	-0.1%	6%	·	·
O=C(N/N=C\c1cc(Br)c(Br)o1)C1COc2ccccc2O1 (centres undefined)	-1.6%	6%	-5	4%
O=C(CCc1ccccc1)NNC(=O)COc1ccc(Br)cc1	?	3%	·	1%
Cc1cc(Br)ccc1NC(=O)CN(C)C(=O)CN1C(=O)NC(C)(C2CC2)C1=O (centres undefined)	4.9%	?	·	·
CN(C)c1ccc(S(=O)(=O)NCC(=O)N2CCN(c3ccccc3)CC2)cc1[N+](=O)[O-]	-1.9%	-8%	·	·
CCOC(=O)c1c(C)[nH]c(C)c1S(=O)(=O)NCCN1CCN(c2cc(Cl)ccc2C)CC1	5.6%	-8%	·	21%
COc1ccc2cc(-c3cc(C(=O)OCC(=O)Nc4c(C)n(C)n(-c5ccccc5)c4=O)c4ccccc4n3)ccc2c1	5.8%	-19%	0	-13%
OC(COc1ccc2c(c1)CCC2)CN1CCN(c2ccccc2F)CC1 (centres undefined)	1.2%	19%	-4	-6%
COC(=O)CC#N	3.4%	-9%	·	·
COCC(=O)N1CCC(Oc2ccc(C(=O)N3C[C@@H]4CCC[C@H]3C4)cc2)CC1	-0.7%	0%	·	-5%
O=C(O)c1nc(Cl)c(Cl)c(N/N=C/c2ccccc2C(F)(F)F)c1Cl	0.1%	0%	·	-11%
COc1cc(CNCc2ccc(OC)c3ccccc23)cc(OC)c1OC	?	?	·	15%
C[C@@H]1CCC[C@H](C)N1Cc1nc(Cc2ccccc2Cl)no1	0.1%	-2%	1	-2%
CCC(=O)OCC(=O)Nc1ccc([N+](=O)[O-])cc1OC	2.2%	-7%	-1	2%
Cc1ccc(-c2csc(NC(=O)C3CC(=O)N(Cc4ccco4)C3)n2)cc1 (centres undefined)	0.8%	5%	-5	4%
O=C(Nc1ccc2nc(C3CC3)n(Cc3ccc(F)cc3)c(=O)c2c1)c1ccco1	0.5%	-3%	1	-9%
COc1cccc(NC(=O)CSC2=NN3CCCC(=O)N=C3S2)c1	1.9%	7%	·	-2%
Cc1cccc(NC(=S)N2CCCCCC2)c1C	-2.0%	7%	·	0%
O=C(Nc1cccc(-c2nc3ccccc3o2)c1)c1cccnc1	1.2%	18%	4	9%
C=CCNC(=O)c1cc(Cl)ccc1[N+](=O)[O-]	1.4%	-10%	4	-5%
O=C(NNS(=O)(=O)c1ccc(Cl)cc1)NC1CCCCC1	-0.1%	1%	7	3%
CCCN(C(=O)COC(=O)CC1CCCCC1)c1c(N)n(Cc2ccccc2)c(=O)[nH]c1=O	?	-9%	·	·
CC(C)(C)[C@H]1COC(=O)[C@@H](Cc2ccc(F)cc2)CC/C=C/C[C@@H](CC(=O)N[C@H](CO)Cc2ccccc2)C(=O)N1	-2.7%	17%	·	·
COc1cccc(/C=N/NC(=O)CN2CC(c3ccccc3)CC2=O)c1OC (centres undefined)	0.1%	-10%	-6	-7%
COc1ccc(C2C(C(=O)N3CCC(C)CC3)c3ccccc3C(=O)N2C)cc1 (centres undefined)	2.1%	-12%	1	0%
CCn1c(C)nc2cc(C(=O)NNC(=O)CCC3CCCCC3)ccc21	0.4%	10%	3	-2%
COc1ccc(-c2c(C(C)=O)c(C)n(C)c2C)cc1	-0.1%	3%	0	-13%
Nc1ccccc1SCC(O)Cn1ccc2ccccc21 (centres undefined)	-0.3%	-4%	·	-10%
CC1SCC(=O)N(CC(=O)NCCc2ccccc2)C1=O (centres undefined)	-5.3%	0%	2	-3%
CCOc1cc(N2CCOCC2)c(OCC)cc1NC(=O)Cn1cnc2c(=O)n(C)c(=O)n(C)c21	-1.8%	-2%	7	0%
COC(=O)c1ccc2c(c1)NC1=C(C(=O)CC(C)(C)C1)C(c1ccncc1)N2 (centres undefined)	-2.9%	9%	9	-16%
COc1ccc(Cc2noc(CN3CCCC(C(=O)c4cccs4)C3)n2)cc1OC (centres undefined)	-2.0%	31%	-1	20%
CC(=O)Nc1ccc(SCCCC(=O)c2ccccc2)cc1	-5.0%	-10%	·	-50%
CCOc1nc2ccccc2cc1/C=C/C(=O)O	?	?	13	-1%
Cc1nccc(-c2cccc(NC(=O)c3ccccc3Cl)c2)n1	4.6%	2%	-5	-3%
Cc1cc(C)nc(NCC(O)COc2ccccc2C)n1 (centres undefined)	-2.6%	11%	10	-9%
COc1ccc(CNC(=O)CCS(=O)(=O)Cc2ccc(C)cc2)c(OC)c1	-0.5%	-16%	11	-3%
Cc1ccc(S(=O)(=O)CCC(=O)N2CCN(c3ccc([N+](=O)[O-])cc3)CC2)cc1	2.0%	7%	·	-1%
COc1ccccc1CNC(=O)CSc1nc2c(oc3ccccc32)c(=O)n1CC1CCCO1 (centres undefined)	-0.8%	1%	·	·
Cc1onc(-c2ccccc2)c1C(=O)NCCc1ccncc1	?	25%	·	-2%
Cc1ccc(NC(=O)COC(=O)c2cccnc2)cc1	0.6%	7%	5	5%
CC(=O)OCCOCn1cnn2c(=O)c(Br)c(C)nc12	-5.0%	-25%	3	1%
Cn1c(CNC(=O)c2ccccc2F)cc2ccccc21	-2.8%	30%	·	-11%
CCOC(=O)c1c(O)c2ccccc2n(CC)c1=O	0.5%	18%	-4	0%
Cc1cc(C)cc(SCc2noc(C(=O)NCCC(C)C)c2C(=O)NCCC(C)C)c1	-4.7%	-1%	·	·
COc1ccc(C(=O)Cn2c(NCCCO)nc3ccccc32)cc1OC	-1.0%	0%	·	-5%
O=C(CN1CCCCCC1)Nc1c(Cl)cc(Cl)cc1Cl	0.1%	2%	·	-46%
COc1cccc(Oc2ccc(C(F)(F)F)cc2N)c1	-0.1%	0%	-2	-42%
C=C(C)c1cccc(C(C)(C)NC(=O)Nc2ccccc2OCC)c1	0.3%	-14%	4	-10%
Cc1cccc(NC(=O)CN2C(=O)NC3(CCCCCCC3)C2=O)c1C	1.5%	3%	·	·
Cc1ccc(NC(=S)NC(NC(=O)c2ccccc2C)C(Cl)(Cl)Cl)c(C)c1 (centres undefined)	-1.2%	8%	-1	?
COc1ccc(CNc2nc3nc(C)c(Cl)c(C)n3n2)cc1	-1.2%	-3%	-3	-84%
COc1ccc(NC(=O)C(=O)NNC(=O)COc2ccc(Cl)cc2)c(OC)c1	-0.7%	19%	·	-8%
CCN(CC)C(=O)C(=O)Nc1cc(C(F)(F)F)ccc1Cl	-4.0%	-8%	0	-1%
O=C(c1ccc(-c2ccccc2Cl)o1)N1CCCCCCC1	-1.1%	1%	·	·
COc1cc(OC)cc(-c2nnc(SCc3cccnc3)o2)c1	-0.1%	-1%	3	-36%
COc1ccccc1/C=C\C=N\n1c(-c2ccc(Cl)cc2Cl)n[nH]c1=S	4.2%	-1%	-3	-3%
CC1(c2ccc(OC(F)F)cc2)NC(=O)N(CC(=O)Nc2cccc(F)c2)C1=O (centres undefined)	-0.6%	38%	·	9%
Cc1nn(CC(=O)NCCCN2CCC(Cc3ccccc3)CC2)c(=O)c2cc(-c3ccccc3)nn12	0.6%	0%	·	-3%

Five entries from above, ordered by their value in GLA inh pH 4.5, lowest first:
SMILES	Rango complex inh	Rango release inh	GLA inh pH 4.5	miR-21 FLuc
CCOC(=O)c1c(O)c2ccccc2n(CC)c1=O	0.5%	18%	-4	0%
COc1ccccc1/C=C\C=N\n1c(-c2ccc(Cl)cc2Cl)n[nH]c1=S	4.2%	-1%	-3	-3%
Cc1ccc(NC(=S)NC(NC(=O)c2ccccc2C)C(Cl)(Cl)Cl)c(C)c1 (centres undefined)	-1.2%	8%	-1	?
COc1cc(OC)cc(-c2nnc(SCc3cccnc3)o2)c1	-0.1%	-1%	3	-36%
C=C(C)c1cccc(C(C)(C)NC(=O)Nc2ccccc2OCC)c1	0.3%	-14%	4	-10%

Other results:
SMILES	Rango complex inh	Rango release inh	GLA inh pH 4.5	miR-21 FLuc
COc1ccc(OC)c2sc(NC(=O)c3ccc(S(=O)(=O)N4CCOCC4)cc3)nc12	-1.1%	5%	0	0%
O=S(=O)(c1cc(F)ccc1F)N1CCN(c2ncnc3ccccc23)CC1	-6.1%	6%	·	·
CC(C(=O)Nc1ccc(S(=O)(=O)N2CCCC2)cc1)N(C)Cc1ccc(F)cc1 (centres undefined)	-4.8%	1%	·	·
CN(Cc1nccn1C)C(=O)c1cc(COc2ccc3ncccc3c2)on1	-0.3%	-18%	-9	11%
O=C(CN1CCC(C(=O)c2ccc3c(c2)OCCO3)CC1)NCc1ccccc1	-0.5%	-2%	·	11%
CN(CC(=O)Nc1ccc(Br)cc1)Cc1ccccc1	3.5%	0%	·	-26%
Cc1ccc(-c2noc(CN(C(=O)c3cccs3)C(C)C)n2)cc1	-3.9%	-15%	-2	-2%
O=C(/C=C/c1cccs1)NC(=S)Nc1ccccc1	0.2%	-10%	4	-39%
CCOP(=O)(OCC)C(Nc1ccccn1)c1ccc(F)cc1 (centres undefined)	-0.8%	3%	7	-6%
CC(CC(=O)N1CCc2ccccc21)S(=O)(=O)c1ccc2c(c1)NC(=O)CO2 (centres undefined)	-2.9%	13%	·	-1%
COc1ccc(C(=O)C[n+]2ccc(-c3nnc4n3CCCCC4)cc2)cc1	?	-13%	-4	-1%
O=C(COC(=O)CNC(=O)c1ccccc1F)NC1CC1	-3.7%	3%	·	·
CCOC(=O)c1cnc(-n2nc(C)cc2C)nc1N1CC(C)OC(C)C1 (centres undefined)	-5.3%	2%	·	·
O=C(Nc1ccc(Cl)cn1)c1cccc(OCc2ccccc2)c1	-0.3%	30%	·	1%
COc1cccc(NC(=O)CSc2nnc(-c3cc(C)[nH]n3)n2N)c1	-0.3%	0%	·	-1%
CCOC(=O)N1CCN(C(=O)c2ccc3c(=O)n(CCc4ccccc4)c(=O)[nH]c3c2)CC1	-1.1%	2%	9	1%
Cc1cccc(C2=NN(c3ccc(Br)cc3)[C@@H](C(=O)N3CCOC3=O)[C@@H]2c2ccc(Cl)cc2)c1	?	?	?	·
CCOC(=O)c1cc2c(c(CCO)n1)[C@@H](CCO)N(S(=O)(=O)C(C)(C)C)C2	-1.1%	0%	·	·
NNC(=O)[C@H]1C[C@@H]1c1ccccc1	-0.9%	1%	-4	-9%
CC1=C(CO)C(=O)OC([C@@H](C)C2CC[C@H]3C4C[C@H]5O[C@]56[C@@H](O)C=CC(=O)[C@]6(C)C4CC[C@]23C)C1 (some centres undefined)	-0.6%	1%	3	?

Overlap with the part before: 2 entries; new compounds follow.
SMILES	Rango complex inh	Rango release inh	GLA inh pH 4.5	miR-21 FLuc
NNC(=O)[C@H]1C[C@@H]1c1ccccc1	-0.9%	1%	-4	-9%
CC1=C(CO)C(=O)OC([C@@H](C)C2CC[C@H]3C4C[C@H]5O[C@]56[C@@H](O)C=CC(=O)[C@]6(C)C4CC[C@]23C)C1 (some centres undefined)	-0.6%	1%	3	?
CC1CCN(C(=O)c2ccc(NS(=O)(=O)c3ccc4[nH]c(=O)[nH]c4c3)cc2)CC1	-0.3%	-6%	·	·
Fc1ccc2cnc(-c3ccccc3)c(-c3ccc(C(F)(F)F)cc3)c2c1	1.8%	-13%	·	·
CN(C)c1cccc(C(=O)Nc2cccc(S(=O)(=O)NC3=NCCC3)c2)c1	1.8%	3%	·	-51%
COc1cc(C(=O)O[C@H]2CC(C)=CC[C@@]3(C)CC[C@@](O)(C(C)C)[C@H]23)ccc1O	1.4%	11%	·	2%
Cc1cc(NC(=O)COC(=O)c2ccccc2O)no1	-5.3%	5%	·	·

Whole records, quoted from the list:
Cc1cc(NC(=O)COC(=O)c2ccccc2O)no1 as listed: Rango complex inh = -5.3%; Rango release inh = 5%; GLA inh pH 4.5 = ·; miR-21 FLuc = ·
CN(C)c1cccc(C(=O)Nc2cccc(S(=O)(=O)NC3=NCCC3)c2)c1 as listed: Rango complex inh = 1.8%; Rango release inh = 3%; GLA inh pH 4.5 = ·; miR-21 FLuc = -51%
